Assay outcomes deposited in PubChem BioAssay by National Center for Advancing Translational Sciences (NCATS).
Cruzain noTriton = qHTS Assay for Promiscuous and Specific Inhibitors of Cruzain (without detergent); Cruzipain (Trypanosoma cruzi), P25779; purified cruzain, Z-FR-AMC fluorescence, no detergent; Potency, µM, inactives show max response, negative = inhibition, hits mostly inhibitors; 200,000 compounds, 2.3% hits;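 note: plate controls were enzyme without inhibitor for no effect and buffer without enzyme for full effect; nearly all actives have a fitted effect of over 40% in size; top concentration of the series not given in the record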
Target sequence (P25779 123-467 limits assumed): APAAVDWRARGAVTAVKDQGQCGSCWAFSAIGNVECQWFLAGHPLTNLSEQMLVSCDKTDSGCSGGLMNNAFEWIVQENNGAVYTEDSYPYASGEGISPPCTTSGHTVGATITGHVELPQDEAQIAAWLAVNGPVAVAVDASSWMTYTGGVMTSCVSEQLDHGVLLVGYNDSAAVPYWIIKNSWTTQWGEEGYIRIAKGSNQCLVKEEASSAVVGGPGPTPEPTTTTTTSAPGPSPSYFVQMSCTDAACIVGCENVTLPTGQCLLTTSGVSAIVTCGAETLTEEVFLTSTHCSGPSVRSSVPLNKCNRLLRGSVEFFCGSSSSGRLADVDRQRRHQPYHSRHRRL
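Purified cruzain at 1.5 nM, pre-incubated 15 min with compound at room temperature in 100 mM sodium acetate pH 5.5, 5 mM DTT, 0.00005% Triton X-100. Reaction started with 2 uM Z-FR-AMC; AMC fluorescence increase over 60 s gives rate.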
Lassa entry inh = qHTS for Inhibitors of binding or entry into cells for Lassa Virus; Lassa virus pseudotype entry inhibition, cell reporter; control for the full effect not named in the record; Potency, µM (doses to about 37.9 µM), without a hit: top-dose activity change, negative = inhibition, usual class: inhibitors; 300,000 compounds, 1.2% hits; AID 540256, 2011; active means well fitted inhibition curve with a large enough effect; inconclusive means small, poorly fitted or top-dose-only effect, or effect the other way; inactive means flat fitted curve, though single readings scatter; tested in HEK293 cells; note: % is set by controls: 0 for no effect and ±100 for the full control effect; nearly all actives have a fitted effect of over 50% in size; luciferase read-out
SARS PLpro yeast = qHTS of Yeast-based Assay for SARS-CoV PLP. S. cerevisiae expressing SARS-CoV PLpro, growth rescue; control for the full effect not named in the record. Potency, µM (highest dose often 32.9 µM), for the others: at the highest dose activity, positive = growth rescue. AID 485353, 2010. 330,000 compounds, 0.19% hits; active means well fitted rising curve with a large enough effect; inconclusive means small, poorly fitted or top-dose-only effect; inactive means no such curve, though single readings can be large or run the other way; note: 0% is about no effect; nearly all actives have a fitted effect of over 55% in size; growth read by luminescence after 48 h
Cruzain Triton = qHTS Assay for Promiscuous and Specific Inhibitors of Cruzain (with detergent). Cruzipain (Trypanosoma cruzi), P25779. purified cruzain, Z-FR-AMC fluorescence, 0.01% Triton. Potency, µM, for the others: max response, negative = inhibition, hits mostly inhibitors. 200,000 compounds, 0.43% hits. AID 1478, 2009;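 note: plate controls were neutral wells for no effect and buffer without enzyme for full effect; nearly all actives have a fitted effect of over 40% in size; top concentration of the series not given in the record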
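Cruzain (1.5 nM) preincubated 15 min at RT with compound in 100 mM sodium acetate pH 5.5, 5 mM DTT, 0.01% Triton X-100. Reaction started with 2 uM Z-FR-AMC; AMC fluorescence (ex 360/em 450 nm) change over 60 s gave rate.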
RE007 growth inh = qHTS Assay for Inhibitors of the HIV-1 protein Vpr; S. pombe RE007 Vpr strain, BacTiter-Glo ATP luminescence, 24 h; control for the full effect not named in the record; Potency, µM (series often up to 92.2 µM), for inactives: at the highest dose activity change, negative = less growth; 360,000 compounds, 0.21% hits; AID 651644, 2012; active = well fitted falling curve with a large enough effect; inconclusive = small, poorly fitted or top-dose-only effect; inactive = no such curve, though single readings can be large or run the other way;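 note: % is set by controls: 0 for no effect and ±100 for the full control effect; nearly all actives have a fitted effect of over 50% in size; the assay follows cell death caused by Vpr and the record does not say whether a fall means rescue or toxicity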
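Fission yeast strain RE007, carrying one chromosomally integrated HIV-1 vpr copy, was seeded at OD 0.01 in PMG+AL medium with 23 nL pinned compound. After 24 h at 30 °C and 99% humidity, viability was read by BacTiter-Glo luminescence.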
StopGo reporter = High Throughput Screening for Foot and Mouth Disease Virus Antivirals; human cells with a luciferase reporter of 2A StopGo recoding; control for the full effect not named in the record; Potency, µM (doses to about 57.9 µM), for the others: at the highest dose signal change, negative = less light; 410,000 compounds, 1.2% hits; AID 1159524, 2015; active = well fitted falling curve with a large enough effect; inconclusive = small, poorly fitted or top-dose-only effect; inactive = no such curve, though single readings can be large or run the other way; tested in HEK293T cells; note: % is set by controls: 0 for no effect and ±100 for the full control effect; nearly all actives have a fitted effect of over 45% in size; luciferase light after 4 h
NS1 function inh = qHTS Assay for Inhibitors of Influenza NS1 Protein Function. AID 2326, 2010. S. cerevisiae slowed by influenza A NS1, growth recovery by OD600. 270,000 compounds, 0.4% hits. Potency, µM (doses to about 46.1 µM), for the others: top-dose activity, positive = more growth; active means well fitted rising curve with a large enough effect; inconclusive means small, poorly fitted or top-dose-only effect; inactive means no such curve, though single readings can be large or run the other way; note: nearly all actives have a fitted effect of over 50% in size
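In this qHTS, NS1 from influenza A is expressed in budding yeast, where it slows growth. Cells are switched from glucose to 2% galactose medium (pH 6.0, -URA), treated with compound, and growth recovery is read at OD600.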
MARV entry inh = qHTS for inhibitors of binding or entry into cells for Marburg Virus; Marburg virus pseudotyped entry inhibition, cell reporter; control for the full effect not named in the record; about a third of the inactives were read at about 46 µM; AID 540276, 2011; Potency, µM (series often up to 37.8 µM), for inactives: at the top dose activity change, negative = inhibition, most hits filed as inhibitors; 300,000 compounds, 1.8% hits; active = well fitted inhibition curve with a large enough effect; inconclusive = small, poorly fitted or top-dose-only effect, or effect the other way; inactive = flat fitted curve, though single readings scatter; tested in HEK293 cells; about a fifth of its hits are not listed in these tables; note: % is set by controls: 0 for no effect and ±100 for the full control effect; luciferase read-out
* hit, by the source's call; u = inconclusive; x = not tested or not shown; & = joins results of further samples; [ ] = another dose, or the depositor's remark. Unless noted, calls come from the whole dose curve; as a rule, active = well fitted curve in the direction sought with a large enough effect; inconclusive = small, poorly fitted or top-dose-only effect, or another doubt; inactive = no such curve, though single readings can be large; an effect the other way counts as inactive or inconclusive. Potency is the fitted concentration of half-maximal effect.

SMILES | Cruzain noTriton | Lassa entry inh | SARS PLpro yeast | Cruzain Triton | RE007 growth inh | StopGo reporter | NS1 function inh | MARV entry inh
COc1ccc2c(c1)CCc1c(C(=O)NCc3cccnc3)noc1-2 | 3% | 14% | 0% | -8.7% | 2% | -15% | -2% | u
CC1CCCN(C(=O)C2CCN(S(=O)(=O)c3cccs3)CC2)C1 (stereo not given) | x | 8% | 5% | x | 12% | -6% | x | 4%
Nc1ccc(S(=O)(=O)O)cn1 | x | u | 1%&0%&-2% | x | -6%&1%&10% | -24%&8%&4% | -1%&1% | 6%&1%[46.1 µM]
COC(=O)C1=C(C(=O)OC)[C@@H]2N(C)c3ccccc3[C@@]23C[C@@H](C(=O)OC)N=C3N1 | x | x | -1% | x | 2% | -18% | 4% | x
O=C(Nc1cccc(NC(=O)c2cccs2)c1)c1ccco1 | -3% | 12% | -2% | -2.6% | -2% | 2% | 15% | 24%
COC(=O)c1sccc1NC(=O)C12CC3CC(CC(C3)C1)C2 | x | 6% | x | x | -16% | 23% | x | 11%
Cc1ccc2sc(NC(=O)CSc3nc(C)cc(C)c3C#N)nc2c1 | -25% | u | 0% | -4.2% | -8% | 55%[activator] | 3% | u
CN(C)c1ccc(C2/C(=C(/O)c3ccc(Br)cc3)C(=O)C(=O)N2C)cc1 (stereo not given) | x | x | -1% | x | 3% | -10% | 11% | x
CCN(Cc1cc2cccc(C)c2[nH]c1=O)C(=O)c1ccccc1OC | 11% | -1% | -1% | -1.1% | 0% | -35% | 0% | -2%
CCc1ccccc1NC(=O)CN1CCN(CC(=O)Nc2cc(C)ccc2OC)CC1 | x | -22% | 2% | x | 19% | -26% | -5% | u
COc1cc(/C=N/NC(=O)C(=O)N2CCCC2)ccc1O | -4% | 21% | -4% | 1.3% | 5% | x | 16% | 1%
CCn1c(SCC(=O)Nc2ccc(NC(=O)c3ccco3)c(OC)c2)nc2ccccc2c1=O | u | -25%[14.3 µM] | 8% | -0.8% | 0% | -2% | u | 8%
O=c1cc(N2CCN(Cc3ccccc3)CC2)[nH]c(=O)n1-c1cccc(C(F)(F)F)c1 | 15% | 0% | -1% | -0.4% | 14% | x | 4% | -15%
COc1cc(C2CC(=O)NC(SCC(=O)Nc3ccccc3C)=C2C#N)ccc1O (stereo not given) | 0% | -8% | 2% | -5.8% | -17% | -19% | 2% | 5%[46.1 µM]
COc1ccc(S(=O)(=O)N(CC(=O)N/N=C/c2ccccc2C(=O)O)c2ccccc2OC)cc1 | x | x | 0% | x | 10% | -4% | 7% | x
Cc1ccc(-c2nc(N)sc2CC(=O)OCC(=O)N2C(C)CCCC2C)cc1 (stereo not given) | 10% | 3% | -6% | -1.7% | -5% | 8% | u | -7%
Cc1ccc2nc(N3CCN(C)CC3)c(C=O)c(=O)n2c1 | x | -35% | -1% | x | 1% | 3% | -2% | u
O=S(=O)(NC1=NCCCCC1)c1cc(F)ccc1F | x | 7%[46.1 µM] | -1% | x | 9% | -3% | x | -2%[46.1 µM]
Cc1ccccc1CNC(=O)Cn1c(C)c2cnn(-c3ccccc3)c(=O)c2c1C | 11% | u | x | -3.5% | x | -16% | x | 1%[46.1 µM]
O=C(COC(=O)c1ccc(F)cc1F)Nc1ccc2[nH]c(=O)[nH]c2c1 | x | -26%[46.1 µM] | 0% | x | 1% | -7% | 4% | u

Retrieved by compound from the list above, two records:
SMILES | Cruzain noTriton | Lassa entry inh | SARS PLpro yeast | Cruzain Triton | RE007 growth inh | StopGo reporter | NS1 function inh | MARV entry inh
CN(C)c1ccc(C2/C(=C(/O)c3ccc(Br)cc3)C(=O)C(=O)N2C)cc1 (stereo not given) | x | x | -1% | x | 3% | -10% | 11% | x
COc1cc(/C=N/NC(=O)C(=O)N2CCCC2)ccc1O | -4% | 21% | -4% | 1.3% | 5% | x | 16% | 1%

3 entries from above, sorted by formula weight, falling:
SMILES | Cruzain noTriton | Lassa entry inh | SARS PLpro yeast | Cruzain Triton | RE007 growth inh | StopGo reporter | NS1 function inh | MARV entry inh
Cc1ccc2sc(NC(=O)CSc3nc(C)cc(C)c3C#N)nc2c1 | -25% | u | 0% | -4.2% | -8% | 55%[activator] | 3% | u
COC(=O)c1sccc1NC(=O)C12CC3CC(CC(C3)C1)C2 | x | 6% | x | x | -16% | 23% | x | 11%
O=S(=O)(NC1=NCCCCC1)c1cc(F)ccc1F | x | 7%[46.1 µM] | -1% | x | 9% | -3% | x | -2%[46.1 µM]

Next section
SMILES | Cruzain noTriton | Lassa entry inh | SARS PLpro yeast | Cruzain Triton | RE007 growth inh | StopGo reporter | NS1 function inh | MARV entry inh
CCOC(=O)NC(=O)COC(=O)CCCc1nc2ccccc2s1 | x | 0% | 0% | x | 0% | -4% | x | 2%[46.1 µM]
FC(F)(F)c1cc(-c2ccco2)nc(NCc2ccccc2)n1 | -2% | 0% | -17% | -3.7% | -12% | -26% | 7% | -13%
COc1cccc(/C=C2\SC(=S)N(CCC(=O)NNC(=O)c3ccccc3OC)C2=O)c1 | x | x | 0% | x | u | 2% | u | u
COc1ccc2oc(C(=O)Nc3cccc(S(=O)(=O)N4CCOCC4)c3)c(C)c2c1 | x | -22% | -3% | x | -1% | -11% | x | u
C[N+](C)(CCCCCC[N+](C)(C)CCCN1C(=O)c2cccc3cccc(c23)C1=O)CCCN1C(=O)c2cccc3cccc(c23)C1=O | u | -15% | x | -26% | -17% | 1% | -2% | 5µM*
Cc1ccc(C2=Nc3ccccc3N=C(c3ccco3)C2)c(O)c1 | -4% | 18% | -6% | -0.8% | -7% | -13% | -12% | 11%
CCC(=O)Nc1cc(C)c(OC)c(C)c1 | x | -1% | 1% | x | 1% | -13% | 1% | 29%[46.1 µM]
CCc1cc2c3c(c(=O)oc2cc1OC(C)C(=O)O)CCCC3 (stereo not given) | x | x | 0% | x | 11% | -10% | 25% | x
Cc1ccc(CNC(=O)c2ccc3c(c2)nc(C)n3-c2cccc(F)c2)cc1 | 17% | 1%[46.1 µM] | x | -2.2% | x | 9% | x | x
CCOC(=O)c1cc2occc2n1CC(=O)Nc1ccc(OC)cc1OC | 4% | -1% | 4% | -1.1% | 5% | x | -3% | -16%
CCOc1ccc(CNC(=O)C2CCN(c3nc4ccccc4nc3C(F)(F)F)CC2)cc1OC | 8% | 5%[46.1 µM] | x | 2.6% | x | -27% | x | x
COc1ccc(NC(=O)N(C2CCCCC2)C2CCN(C(C)C)CC2)c(OC)c1 | -6% | -14% | 3% | 1.1% | 1% | -6% | -1% | u
Cc1cc(C)cc(Cn2ncc(Cl)c(Cl)c2=O)c1 | 4% | u | -45% | -9.5% | -27% | 28µM* | -12% | 11µM*
CN1C(=O)SC(Nc2ccccc2)C1=O (stereo not given) | 11% | 2% | 13µM* | 0.6% | 2% | 4% | -3% | 25%
COCCCN1C(=O)C(O)=C(C(C)=O)C1c1cccc(F)c1 (stereo not given) | -17% | 4% | 5% | -4.3% | -3% | -27% | -4% | -3%[46.1 µM]
COc1ccc(C(=O)NCc2cc(C)nc3ccccc23)cc1 | x | u | 21% | x | -6% | u | u | u
COc1ccc(NCc2nn(CC(=O)c3ccc(Br)cc3)c3[n+]2CCCCC3)cc1 | x | 6% | 0% | x | -11% | 1% | x | -3%
O=C(c1cc2cc(Cl)ccc2oc1=O)N1CCN(c2ccccn2)CC1 | x | x | 3% | x | -2% | 10% | 13% | x
CCOC(=O)CSc1nnc(-c2ccco2)n1C | -14% | 0% | -1% | -0.1% | -10% | -19% | -9% | -2%
O=C(O)C1CC=CCC1C(=O)NCCc1ccccc1 (stereo not given) | -11% | 4% | 2% | 10.0% | -11% | -5% | 5% | -4%
CCc1nnc(NC(=O)CCC(=O)NC2CCCC2)s1 | x | x | 2% | x | -6% | 3% | -3% | x
Cc1cc(C)c(C(=O)CSc2nc(C)cc(C)c2C(N)=O)c(C)c1 | u | u | -18% | -2.1% | -2% | 3% | 7% | -20%
COc1ccc(NC(=O)CSc2nc3nc(C)c(Cc4ccccc4)c(C)n3n2)cc1OC | u | -5%[46.1 µM] | x | 0.3% | x | -23% | x | x
CN(C)c1ccc(C2C3=C(CCCC3=O)OC3=C2C(=O)CCC3)cc1 | -21% | 10% | -8% | -2.1% | 5% | -21% | -8% | -1%
Cc1cc(C)c(C)c(S(=O)(=O)N2CCC(C(=O)N3CC(C)CC(C)C3)CC2)c1C (stereo not given) | x | -7% | -1% | x | 2% | u | x | u
COc1ccc(NC(=S)N(Cc2cccc(Br)c2)CC2CCC(C(=O)O)CC2)cc1 (stereo not given) | x | 28%[46.1 µM] | 0% | x | 6% | -8% | x | -26%[46.1 µM]
COc1ccc(-c2nc3ccccc3c(=O)n2NC(=S)N(C)C)cc1 | 0% | 4% | -15% | -4.2% | -14% | -21% | 8% | u
O=C(Cc1ccccc1)NCC(=O)N1CCc2ccccc2C1 | x | 3%[46.1 µM] | 1% | x | 3% | -8% | 0% | 4%[46.1 µM]
O=C(COc1ccc2c(c1)C(=O)CC1(CCCCC1)O2)NCc1ccccc1 | 6% | -29% | -5% | -6.0% | -13% | -8% | -52% | u
CCc1ccc(-c2ccc(C(=O)O)c(C)n2)cc1 | -11% | u | -7% | -5.6% | -12% | 38%[activator] | -8% | u
CCOc1ccccc1N1CCN(C(=O)CNC(=O)c2sc3ccccc3c2Cl)CC1 | x | u | -2% | x | 1% | u | u | u
OCCC1CN(Cc2ccc(F)cc2)CCN1CCCc1ccccc1 (stereo not given) | x | x | u | x | -6% | -15% | -4% | x
Cc1cccc(C(=O)NCCN2CCCC2)c1 | 2% | -5% | 0% | 0.9% | 1% | -15% | 4% | 8%
